Assay outcomes: PubChem BioAssay, several laboratories
RN4220 kill: kills Staphylococcus aureus RN4220. inhibition, % (test concentration not listed). 330,000 tested, 0.33% active. S. aureus RN4220 growth, OD600, 16 h;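 active = z-score of -3 or lower and OD600 up to 0.18 on both plates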;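 also: plate controls were untreated cells for no effect and reference antibiotic for full effect; stock transfer was 100 nL into about 80 µL; one replicate is shown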
Mtb hypoxia rep: inhibitors of hypoxia-regulated fluorescent reporter in Mycobacterium tuberculosis. M. tuberculosis hypoxia-regulated fluorescent reporter, fluorescence. 300,000 tested, 0.1% active. fluorescence inhibition, % (test concentration not listed);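 active = 35 to 45% if threefold the growth effect, above 45% if 1.5-fold the growth effect; inactive = the rest, general growth blockers included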;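 also: wells of about 50 µL received 100 nL stock; 0% = vehicle wells and 100% = reference inhibitor wells; whole bacteria with a GFP reporter of the hypoxia response; strong numbers were not always called active; many hits fall short of the cut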
BJeLR viability: BJeLR cell viability loss. BJeLR (HRASV12) viability, CellTiter-Glo ATP luminescence, 48 h; reference of the scale not given here. AID 1554. 300,000 tested, 0.17% active. inhibition, % (test concentration not listed);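 active = replicate mean above 50%; inconclusive = above 50% but judged a plate artefact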;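 also: 50 nL library stock added to about 25 µL; numbers are from one replicate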
PrP UTR inh: suppresses PrP 5' UTR mRNA reporter expression; 340,000 tested, 0.35% active; inhibition, % (test concentration not listed); cell-based PrP 5' UTR mRNA reporter, plate reader;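 active = every replicate at 50% or more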;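 also: 0 = median of the neutral control wells; tested in H4 reporter cells; numbers are from one replicate; inactives centre near -14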
Autofluor counter: counter-screen for toxin protease inhibitors: compound fluorescence | compound autofluorescence counterscreen, microsphere flow cytometry; active compounds read high | fluorescence intensity (concentration not given with the values) | 360,000 tested, 3.1% active;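 active = at least 3 SD above the mean of all compounds, about 16000 in these data; inconclusive = too few beads counted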;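 also: 100 nL of 1 mM stock went into each well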
Sa ugtP lethal: kills S. aureus RN4220 lacking UgtP | S. aureus RN4220 ugtP deletion, OD600 growth, 16 h; some inactives read as strong as hits | growth inhibition, % (test concentration not listed) | 330,000 tested, 0.54% active;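 active = z-score under -3 and OD600 up to 0.15 on both plates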;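 also: plate controls were untreated wells for no effect and antibiotic for full effect; wells of about 80 µL received 100 nL stock; the first replicate is given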
Mtb hypoxia rep growth: further read-out of Mtb hypoxia rep, marked with its call; growth inhibition, %; measured here: M. tuberculosis growth (absorbance);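 0% = vehicle and 100% = reference antibiotic; read after six days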
* hit, by the source's call; ? = inconclusive; · = no result given.

SMILES	RN4220 kill	Mtb hypoxia rep	Mtb hypoxia rep growth	BJeLR viability	PrP UTR inh	Autofluor counter	Sa ugtP lethal
CN(C)C(=O)c1ccc2c(c1[N+](=O)[O-])C(=O)c1ccccc1C2=O	24.1	3.4	3.9	-5.9	-42.9	2409	12.3
CCCN1CCN(S(=O)(=O)c2ccc(-c3cc(C)no3)s2)CC1	0.7	1.8	-0.8	7.3	-18.1	5072	4.8
C(=C\n1nnc2ccccc21)/c1ccccn1	·	·	·	10.7	1.8	4139	·
O=C(O)c1ccc(OCC(F)(F)F)nc1	1.5	2.4	7.3	-2.2	8.4	5805	-1.5
COc1ccc(-c2cc(-c3ccccc3)n3ncnc3n2)cc1	4.8	·	·	-6.6	-1.5	4804	-5.7
Fc1cc2[nH]c(=S)[nH]c2c(Br)c1N1CCSCC1	-2.3	-3.1	0.8	-0.6	6.1	3774	4.8
CCC1=NN2C(=N)C(=Cc3cccn3-c3ccc(Cl)cc3)C(=O)N=C2S1	4.1	9.6	5.6	·	·	·	-8.8
COc1cc(-c2nnc(COC(=O)CSCC(=O)Nc3cc(C)on3)o2)cc(OC)c1OC	2.1	1.5	-3.4	-9.6	-5.5	4921	5.2
N/C(=N\OC(=O)Oc1ccccc1)c1cccc([N+](=O)[O-])c1	·	·	·	-1.8	-24.5	7856	·
COc1ccc(NC(=O)CSc2nc3c(c(=O)n2-c2ccc(F)cc2)SCC3)c(OC)c1	-2.5	·	·	-4.0	-22.4	4613	0.1
COc1ccc(C=NNC(=O)c2[nH]c3ccc(C)cc3c2-c2ccccc2)c(C(=O)O)c1OC	5.3	7.3	1.3	·	·	·	6.1
FC(F)Sc1ccc(-n2c(-c3ccc(Cl)cc3)c[n+]3c2CCC3)cc1	-1.1	-3.0	-1.5	4.3	-25.8	4875	5.7
C[C@H]1CC[C@@H]2[C@@H](C)[C@H]3[C@H](C[C@H]4[C@@H]5CC=C6C[C@@H](O[C@@H]7O[C@H](CO)[C@H](O)[C@H](O[C@@H]8O[C@H](CO)[C@@H](O)[C@H](O)[C@H]8O)[C@H]7O[C@@H]7O[C@@H](C)[C@H](O)[C@@H](O)[C@H]7O)CC[C@]6(C)[C@H]5CC[C@]34C)N2C1	-0.4	·	·	-3.9	-51.0	5639	-0.5
CCOC(=O)C1=CN(CC)CCC1=O	1.7	-2.3	1.5	·	-11.6	3665	-2.4
Cc1ccc[n+](CC(=O)c2ccc(NC(=O)c3ccccc3)cc2)c1C	3.5	5.0	-0.7	-5.8	·	3824	13.2
CCN(CC(=O)Nc1c(F)cccc1F)C(=O)Cc1sc(C)nc1-c1ccc(F)cc1	1.7	-1.5	0.5	·	-1.3	?	2.3
COC(=O)c1ccccc1NC(=O)c1ccccc1N(C)S(=O)(=O)c1ccccc1	6.0	5.9	1.0	11.7	-11.9	7001	2.8
CC1CCN(c2c(NCC3CCC(C(=O)N4CCCCC4)CC3)c(=O)c2=O)CC1 (configuration not stated)	1.3	3.1	-3.7	6.0	0.4	5734	1.8
CCON1C(=O)CN(C(=O)OC)C1c1ccc(Cl)cc1Cl (configuration not stated)	4.1	2.3	4.3	-4.4	-17.6	3797	-1.1
COc1cc2c(cc1OC)CN(C(=O)C1CCN(S(=O)(=O)c3ccccc3F)CC1)CC2	0.7	-7.1	-10.3	-1.1	0.3	4658	7.0
O=C(COC(=O)c1ccc(OC(F)(F)F)cc1)NCCN1C(=O)CSC1=O	5.6	-3.1	5.3	·	-18.4	·	-0.9
COc1ccccc1CCNC(=O)CSc1nc(=O)[nH]c2c1CCC2	3.9	4.7	7.9	-2.9	0.9	7188	-0.3
O=C(NC(=S)NNC(=O)c1ccccc1O)c1ccc(F)cc1	37.8	12.6	-5.0	-3.9	-11.2	3337	25.3
O=C1N=C(N2CCOCC2)SC1=Cc1ccco1	3.6	6.7	9.4	·	-26.0	3456	0.9
CCc1ccc(-n2c(Cn3nc(C(F)(F)F)cc3C)n[nH]c2=S)cc1	5.0	-0.3	6.0	-1.6	-3.3	10938	-5.8

Some of the entries so far, with bars between the fields:
mol | RN4220 kill | Mtb hypoxia rep | Mtb hypoxia rep growth | BJeLR viability | PrP UTR inh | Autofluor counter | Sa ugtP lethal
COc1cc(-c2nnc(COC(=O)CSCC(=O)Nc3cc(C)on3)o2)cc(OC)c1OC | 2.1 | 1.5 | -3.4 | -9.6 | -5.5 | 4921 | 5.2
N/C(=N\OC(=O)Oc1ccccc1)c1cccc([N+](=O)[O-])c1 | · | · | · | -1.8 | -24.5 | 7856 | ·
COc1ccc(NC(=O)CSc2nc3c(c(=O)n2-c2ccc(F)cc2)SCC3)c(OC)c1 | -2.5 | · | · | -4.0 | -22.4 | 4613 | 0.1
COc1ccc(C=NNC(=O)c2[nH]c3ccc(C)cc3c2-c2ccccc2)c(C(=O)O)c1OC | 5.3 | 7.3 | 1.3 | · | · | · | 6.1
FC(F)Sc1ccc(-n2c(-c3ccc(Cl)cc3)c[n+]3c2CCC3)cc1 | -1.1 | -3.0 | -1.5 | 4.3 | -25.8 | 4875 | 5.7
C[C@H]1CC[C@@H]2[C@@H](C)[C@H]3[C@H](C[C@H]4[C@@H]5CC=C6C[C@@H](O[C@@H]7O[C@H](CO)[C@H](O)[C@H](O[C@@H]8O[C@H](CO)[C@@H](O)[C@H](O)[C@H]8O)[C@H]7O[C@@H]7O[C@@H](C)[C@H](O)[C@@H](O)[C@H]7O)CC[C@]6(C)[C@H]5CC[C@]34C)N2C1 | -0.4 | · | · | -3.9 | -51.0 | 5639 | -0.5

The listing picks up with the four entries that preceded the break.
SMILES	RN4220 kill	Mtb hypoxia rep	Mtb hypoxia rep growth	BJeLR viability	PrP UTR inh	Autofluor counter	Sa ugtP lethal
COc1ccccc1CCNC(=O)CSc1nc(=O)[nH]c2c1CCC2	3.9	4.7	7.9	-2.9	0.9	7188	-0.3
O=C(NC(=S)NNC(=O)c1ccccc1O)c1ccc(F)cc1	37.8	12.6	-5.0	-3.9	-11.2	3337	25.3
O=C1N=C(N2CCOCC2)SC1=Cc1ccco1	3.6	6.7	9.4	·	-26.0	3456	0.9
CCc1ccc(-n2c(Cn3nc(C(F)(F)F)cc3C)n[nH]c2=S)cc1	5.0	-0.3	6.0	-1.6	-3.3	10938	-5.8
NCCCC(=O)N1c2ccccc2Sc2ccc(Cl)cc21	0.8	9.8	5.1	0.9	-26.1	3366	6.6
Cc1cc(C(=O)CSc2nnc(-c3cccc(F)c3)n2N)c(C)n1Cc1ccc2c(c1)OCO2	-5.2	-1.4	1.7	6.2	-22.3	4573	-17.9
COc1ccc(Oc2ccccc2C#N)cc1	1.6	9.9	12.5	-7.1	-2.1	3286	-7.4
Cc1ccc(S(=O)(=O)NC(C)C(=O)OCC(=O)N(C)c2ccccc2)cc1 (configuration not stated)	7.1	5.2	3.4	·	-5.2	3518	4.4
CC(=O)c1sc(Nc2nc(C)cc(C)n2)nc1C	2.3	-70.2	-14.6	-10.5	-23.7	3367	0.4
COc1ccc(-c2noc(CSc3nnc(Cc4ccccc4)n3-c3ccc(Cl)cc3)n2)cc1	3.9	8.7	5.5	-4.7	-13.9	24663*	-23.3
CC(=O)NC(CC(=O)NCCN1C(=O)S/C(=C\c2ccccc2)C1=O)c1ccccc1 (configuration not stated)	2.8	-3.1	-1.2	10.1	-8.1	4019	1.5
COc1ccc(N(C(=O)c2ccco2)C(C(=O)NC2CCCC2)c2ccc(N3CCOCC3)cc2)c(OC)c1 (configuration not stated)	2.8	-2.9	-0.3	-0.2	-13.7	2677	7.5
Cc1ccc2[nH]c(-c3ccccc3)cc(=O)c2c1	-1.2	-5.9	-7.1	28.9	6.5	4173	-5.4
CC(C)c1nnc(NC(=O)CCC(=O)NC2CC2)s1	3.7	9.5	-1.6	-6.7	-3.0	6448	-3.1
CC1Cc2ccccc2N1C(=S)Nc1ccc(S(N)(=O)=O)cc1 (configuration not stated)	5.5	9.6	7.1	-5.0	-8.1	2291	1.3
CC(=O)c1sc(NC(=O)COc2ccc([N+](=O)[O-])cc2)nc1C	·	·	·	-1.0	-21.0	2571	·
O=C(Nc1nc(-c2ccc3c(c2)OCCO3)cs1)C1CCCC1	0.3	5.7	-1.7	-4.0	-61.8	4616	2.1
Cc1nn(C)cc1-c1n[nH]c(=S)n1-c1ccc(Cl)cc1	-0.5	-3.2	-3.1	9.5	15.5	8975	1.9
O=C(CN(CC1CCCO1)C(=O)CNS(=O)(=O)c1ccc(F)cc1)NCCc1ccccc1 (configuration not stated)	4.2	16.5	7.1	-10.2	-40.6	3472	-5.7
CC(=O)NNS(=O)(=O)c1ccc(-c2cc(C(F)(F)F)n(C)n2)s1	7.3	-9.2	-1.2	5.4	-20.5	3923	-4.1
Nc1ccc(-c2nc3cc(N)ccc3s2)cc1	-5.4	·	·	·	-18.8	3020	5.7
CC(CCc1ccccc1)NC(=O)C=Cc1ccc(Cl)cc1 (configuration not stated)	-1.1	3.9	2.5	·	·	·	-1.2
CCCn1nc(NC(=O)c2cccs2)c2cc3ccc(C)cc3nc21	6.3	-1.7	-0.3	-10.5	-8.1	5507	-15.3
Cc1sc2ncnc(SCC(=O)Nc3ccc(S(=O)(=O)N4CCOCC4)cc3)c2c1C	-1.8	7.2	1.1	·	-17.4	3335	-4.9
COc1ccc(C(=O)NCc2nnc(SC)n2C2CCCCC2)cc1	2.5	3.5	7.5	0.3	-23.6	6063	8.4
COc1cccc(/C=C2\SC(=O)N(CC(=O)NCCCn3ccnc3)C2=O)c1	-2.0	-0.3	-0.9	0.1	-16.5	4261	0.0
O=C(c1ccc2c(c1)OCO2)N1CCC2(CC1)Oc1ccc(Cl)cc1C(=O)C21CC(c2cccnc2)=NO1 (configuration not stated)	1.0	-8.1	1.2	-7.9	53.1*	2895	-0.3
COc1ccc(NC(=O)C(C)NS(=O)(=O)c2ccc(NC(C)=O)cc2)cc1Cl (configuration not stated)	-1.2	0.9	-7.4	-4.6	-21.4	23479*	3.6
CCN(C(=O)COC(=O)c1cc(-c2cccs2)nc2ccccc12)C1CCS(=O)(=O)C1 (configuration not stated)	10.5	-8.0	1.5	-3.7	-18.4	4178	5.8

Additional records
SMILES	RN4220 kill	Mtb hypoxia rep	Mtb hypoxia rep growth	BJeLR viability	PrP UTR inh	Autofluor counter	Sa ugtP lethal
COc1ccc(-c2nn(-c3ccccc3)cc2/C=N/NC(=S)NC(C)C)cc1OC	·	·	·	-11.5	-10.8	2287	·
COC(=O)c1ccc(OC(=O)C23CCC(C)(C(=O)O2)C3(C)C)cc1 (configuration not stated)	2.6	9.1	2.1	-4.7	-24.7	4144	5.9
O=C(CCl)N1c2ccccc2Oc2ccc3ccccc3c21	89.8*	25.5	31.5	·	-33.1	3811	98.6*
O=C(N/N=C/c1ccc(OC(=O)c2ccccc2)cc1)c1cccnc1	·	·	·	3.3	-19.7	6216	·
CN(c1ccccc1)S(=O)(=O)c1ccc(C(=O)Nc2nnc(C3CC3)o2)cc1	6.6	5.8	14.9	-0.4	-14.9	2547	-6.8
Fc1ccc(N/N=C/c2cccnc2)c(F)c1	·	·	·	-1.6	-41.6	4766	·
CCC1=NC(c2ccccc2OC)N(O)C1(C)C (configuration not stated)	4.7	7.2	9.9	2.7	·	10660	-2.0
O=C(O)CCNc1cc(N2CCN(C(=O)c3ccco3)CC2)c2noc3c2c1C(=O)c1ccccc1-3	·	·	·	6.6	-5.2	4996	·
COc1ccccc1NC(=O)CSc1c2c(nc3ccccc13)CCC2	-0.3	2.3	1.5	-0.5	-15.6	2164	-6.0
COCc1cc(C)nc2sc(C(=O)N3CCCC3)c(N)c12	-3.7	-6.6	-11.1	-3.4	-30.5	10499	0.0
